# Ab BasE inh: blocks the Acinetobacter baumannii siderophore enzyme BasE | purified BasE, fluorescence polarization binding displacement | inhibition, % (no concentration beside the values) | 84,000 compounds, 0.1% hits;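 active = both replicates above 25% with normal brightness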;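 note: 0% = negative plate control signal and 100% = positive plate control signal; stock transfer was 100 nL into about 30 µL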
# KSHV LANA nucl: inhibitors of KSHV LANA binding to nucleosomes; 51,000 compounds, 0.3% hits; FITC-LANA1-23 / chicken nucleosome fluorescence polarization; hits give low values; z-score (no concentration beside the values);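 active = both repeat wells score below -2 in polarization z-score versus plate sample wells, excluding overly bright wells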;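 note: 100 nL library stock added to about 30 µL; numbers are from one replicate; some results filed as inactive read as strong as hits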
#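 Test system: purified chicken nucleosomes with FITC-labelled LANA N-terminal peptide (1-23); Input: 240 nM purified chicken nucleosomes (480 nM peptide binding sites), final; Medium: TEN-BT buffer, pH 7.5; Timing: 10–45 min, room temperature; Technique: fluorescence polarization, 480 nm excitation, 535 nm parallel and perpendicular emission; Replication: duplicates.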
# Active calls of the source: *; / = not tested or not shown; & = joins results of further samples. Some of the compounds tested; count on the stated rates, not on these rows.
SMILES,Ab BasE inh,KSHV LANA nucl
CCN(CC)S(=O)(=O)c1ccc(-c2nnc(SCC(=O)N3CCCC3)n2CC)cc1,0.3,-0.56
Cc1ccccc1Cn1ccc(NC(=O)COCc2cc(-c3cccs3)on2)n1,-1.1,0.88
COc1cccc(N2CC(=O)N(/N=C/c3ccc(C)o3)CC2=O)c1,2.1,-0.18
O=C(NCc1cccs1)C(NS(=O)(=O)c1ccc(Br)s1)c1ccccc1 (stereo not given),0.2,0.34
CN1CCN(C(=O)c2cccc(S(=O)(=O)N(C)C)c2)CC1,0.7,-0.031
CN1CN(C)c2ccc(Br)c3cccc1c23,-2.9,/
Cn1c(SCC(=O)N2CCCc3ccccc32)nnc1-c1ccccc1N,0.0,-1.3
CCOC(=O)C1=C(C)N(C)C(=O)N(C)C1c1ccccc1 (stereo not given),2.0,/
Cc1occc(=O)c1O,/,0.67
COc1ccccc1OCCN1CCOCC1,1.8,-1.3
O=C(OCc1ncc(-c2ccccc2)o1)c1cc(=O)[nH]c2ccccc12,4.0,/
Cc1ccc(C(=O)OC(C)C(=O)NC2CCCC2)c(C)c1 (stereo not given),2.4,/
COc1cccc(CN(C)C(=O)c2cc(C)oc2C)c1OC,0.3,/
CCc1ccc(NC(=O)N2CCSc3ccccc32)cc1,-0.6,-0.18
COc1ccc2nc(NNC(=O)C3COc4ccccc4O3)sc2c1 (stereo not given),5.0,-0.68
COC1=C(C2(O)CCCc3c2no[n+]3[O-])CCc2c1no[n+]2[O-] (stereo not given),-4.7,1.1
O=C(CSc1nccc(=O)[nH]1)c1ccc(Br)cc1,1.1,-1.2
N#Cc1ncn(-c2ccccc2Oc2ccccc2)c1N,/,-0.42
C=CCN(CC=C)S(=O)(=O)c1ccc2nc(NC(=O)C(C)C)sc2c1,-1.5,0.82
O=C(O)c1cccc(NS(=O)(=O)c2cc3c4c(cccc4c2)C(=O)NC3=O)c1,2.3,-0.59

# Five entries from above in another layout.
# Results follow in this order: Ab BasE inh | KSHV LANA nucl
- COc1cccc(N2CC(=O)N(/N=C/c3ccc(C)o3)CC2=O)c1
  2.1 | -0.18
- CN1CCN(C(=O)c2cccc(S(=O)(=O)N(C)C)c2)CC1
  0.7 | -0.031
- C=CCN(CC=C)S(=O)(=O)c1ccc2nc(NC(=O)C(C)C)sc2c1
  -1.5 | 0.82
- CCN(CC)S(=O)(=O)c1ccc(-c2nnc(SCC(=O)N3CCCC3)n2CC)cc1
  0.3 | -0.56
- COC1=C(C2(O)CCCc3c2no[n+]3[O-])CCc2c1no[n+]2[O-] (stereo not given)
  -4.7 | 1.1

# Additional results follow:
SMILES,Ab BasE inh,KSHV LANA nucl
NC(=S)Cc1nc2ccccc2[nH]1,-13,/
C/C(N)=C(/C#N)C(=O)CSc1nnc(C(F)(F)F)n1N,-0.6,/
N/C(CN1CCSCC1)=N\OCc1c(Cl)cccc1Cl,0.7,-0.52
Cc1ccc(S(=O)(=O)N(CC(=O)NC2CC2)C2CCCCC2)cc1,1.0,/
O=C(CN1CSCC1=O)Nc1nc(SCc2ccccc2)ns1,-5.3,/
CC1(C)CC(=O)c2cc(C(=O)NC(C)(C)C)c(=O)n(-c3ccccc3)c2C1,0.8,0.31
Cc1nnsc1-c1nnc(SCC(=O)N(c2ccccc2)C2CCCCC2)n1C1CC1,-1.1,/
CC(C)CCN1C(=O)c2ccc(-c3nc4ccccc4o3)cc2C1=O,0.5,0.13
O=C(NOC(=O)c1ccccc1)c1ccccc1,2.7,0.59
Cc1cccc(-n2c(N)cc(=O)nc2SC(C)C(=O)Nc2ccccc2)c1 (stereo not given),-36,-0.7
CCCc1cc(=O)[nH]c(/N=C(/NC(=O)c2ccccc2)Nc2ccccc2)n1,-0.6,-0.17
OCCSc1nnc(-c2cc3ccccc3o2)n1-c1ccccc1,0.6,0.89
O=C(CSc1nnnn1Cc1ccccc1)c1ccccc1,-0.7,-0.58
CC(=O)Nc1ccc(S(=O)(=O)N2CCN(C/C=C/c3ccccc3)CC2)cc1,-0.3,0.023
CC1=CCC2(CC1)COC(C)(CC(=O)NN)OC2 (stereo not given),-0.1,/
CC(C)(C)P(=NC(=S)Nc1ccccc1)(N1CCOCC1)N1CCOCC1,-1.3,/
O=C(Nc1nnc(C2CC2)o1)c1ccc(S(=O)(=O)N2CCCCC2)cc1,-0.4,0.44
CC(Sc1ccccc1)C(=O)N/N=C/c1cccnc1 (stereo not given),-2.3,1
CC1=C2C(=CO[C@H](C)[C@H]2C)C(=O)C(C(=O)O)=C1O,2.3,0.29
CCCNC(=S)N1CCN(S(=O)(=O)c2ccc(OC)c(OC)c2)CC1,1.4,0.075
O=C(Cn1c(COc2ccc(Cl)cc2)nc2ccccc21)NCc1ccco1,0.4,/
O=C(CCCSc1nnc(Nc2ccccc2F)s1)N1CCOCC1,1.0,/
CC1CCN(S(=O)(=O)c2ccc(CN3C(=O)c4cccnc4C3=O)cc2)CC1,0.7,-0.018
Cc1nc(C(F)(F)F)ccc1-c1nnc(SCc2ccc(OC(F)(F)F)cc2)o1,4.1,0.43
CC(=O)Nc1ccc(-c2nn3c(C)nnc3s2)cc1,1.0,-0.24
COc1cccc(NCCC#N)c1,-0.6,/
Clc1ccc2c(c1)CCc1cccnc1C2=C1CCNCC1,/,-0.3&-0.35&-0.36
O=C(CN1CCOCC1)NN1CC(=O)N(c2ccccc2)CC1=O,2.6,-0.54
CC(C)(C)c1ccc(C(=O)NCc2nnc(SCC(=O)Nc3ccc4c(c3)OCO4)o2)cc1,0.0,-0.15
N#CC1CCN(CCS(=O)(=O)c2ccc(Cl)cc2)CC1,1.3,-0.61
CCN(C(=O)c1cccc2c1SCCC2=O)c1ccccc1F,-1.9,0.072
Cc1[nH]n(-c2ccccc2)c(=O)c1/C=N/NC(=O)c1ccccc1,1.5,-0.82
CCCn1c(SC(C(=O)c2ccccc2)c2ccccc2)n[nH]c1=O (stereo not given),-1.8,/
Cc1ccc(N2CC(C(=O)NC3CC3)CC2=O)cc1Cl (stereo not given),-0.4,-0.76
N#Cc1ccsc1NC(=O)CSC1CCCCC1,/,1.2
O=C(Cn1ncn2c(cc3ccccc32)c1=O)NCCc1ccccc1,-0.2,-0.01
CC1=CSC2=NC(=O)/C(=C\c3ccc(SCc4ccc(Cl)cc4)o3)C(=N)N12,-5.3,-0.7
O=C(NCC1CCCN1S(=O)(=O)c1ccccc1)Nc1ccccc1 (stereo not given),0.0,-1.2
O=C(Nc1ccc(F)cc1)C1CC(=O)N(CCc2ccccc2)C1 (stereo not given),-1.2,/
S=c1[nH]nc(-c2ccncc2)n1C1CCCC1,2.2,/
O=C(/C=C/C(=O)c1ccccc1)c1ccccc1,3.4,/
CN(C)c1ccc(NC(=S)N=P(c2ccncc2)(N(C)C)N(C)C)cc1,-3.0,/
CCCCc1c(O)c2cccc3c4ccccc4n(c1=O)c23,3.7,/
COC(=O)C(C)(C)NC(=O)Nc1ccc(Cl)cc1Cl,-0.8,0.21
O=C(Nc1nn[nH]n1)C1c2ccccc2Oc2ccccc21,1.5,/
N#C/C(=C(/O)c1ccc(C(=O)c2ccccc2)cc1)c1nc2ccccc2s1,1.9,/
Cc1sc2nc(Cn3nnc(-c4cccc(C(F)(F)F)c4)n3)[nH]c(=O)c2c1C,-4.0,/
CC(C(=O)NCCc1ccccc1)n1c2ccccc2c2cn[nH]c(=O)c21 (stereo not given),-0.2,-1.2
Oc1ccccc1C1=NN2C(C1)c1ccccc1OC21CCCC1 (stereo not given),-1.1,0.51
COCCN1C(=O)c2ccccc2C(C(=O)NC2CC2)C1c1cccs1 (stereo not given),3.6,-0.99
CN1c2ccccc2C(C)(C)C12C=Cc1cc(O)ccc1O2 (stereo not given),-0.1,-0.03
CCc1c(C)sc(NC(=O)/C=C/c2cccs2)c1C(=O)OC,0.2,0.18
COC(=O)c1cc(CSc2nnc3c(Cl)cc(Cl)cn23)oc1C,0.5,/
CC(C)[C@H](NC(=O)c1ccc(C(C)(C)C)cc1)C(=O)NCc1ccco1,2.2,/
COCC(O)CSc1nc(C)cc(C)n1 (stereo not given),0.3,-0.88
CCN(CC)S(=O)(=O)c1ccc(NC2c3ccccc3C(=O)N2c2ccccn2)cc1 (stereo not given),2.1,0.012
Cc1cc2cc(OCc3ccccc3)ccc2n1C,-0.2,-1.6
COc1ccc(O)c(C(=O)c2cnc3onc(-c4ccc(Cl)cc4)c3c2)c1,-5.2,/
Cc1cc(C(=O)CSc2nnc(Cc3ccccc3)o2)c(C)n1CC1CCCO1 (stereo not given),0.7,/
C[C@](N)(Cc1ccc(O)c(O)c1)C(=O)O,-5.6&-0.3,0.55&0.085&0.99&-0.49
# Next entries follow:
SMILES,Ab BasE inh,KSHV LANA nucl
CCSc1nnc(-c2cccc(S(=O)(=O)N(C)C)c2)n1-c1ccc(F)cc1,-0.4,/
COC(=O)c1ccccc1S(=O)(=O)Nc1ccc2nc(C)sc2c1,-4.9,/
CCCNC(=O)c1c(C)c(C(=O)OCC)n(C)c1C,-2.5,-0.46
CC(C)C1=NNC(=O)C1(C)C,2.0,/
O=C(c1cnc2c(c1)c(-c1ccccc1)nn2CCO)c1ccccc1O,0.3,/
Cc1ccc(NS(C)(=O)=O)cc1F,-0.1,-1.3
COc1ccc2oc(C#N)cc2c1,/,0.17
Cc1oc(-n2cccc2)c(C#N)c1C(=O)NC1CCCCCC1,-2.4,/
CN(C(=O)CSCc1ccc(Cl)cc1)c1ccccc1,/,-1.1
O=C(CSc1nc2ccccc2n1CCc1ccccc1)NC1CCS(=O)(=O)C1 (stereo not given),-5.6,/
CCCCN(C)c1nc(-c2ccc(OC)cc2)nc2ccccc12,-1.4,1.2
O=C1OC2CC3CCC2C1C3 (stereo not given),3.4,-0.57
COc1ccc(C2Sc3nncn3N2Cc2ccc(C#N)cc2)cc1 (stereo not given),-7.7,/
Clc1ccccc1-c1nc(N2CCCC2)c2ccccc2n1,-0.7,-0.32
O=S(=O)(Cc1ccc2nonc2c1)c1ccc(C(F)(F)F)cn1,3.4,-0.041
CCN1C(=O)CSC1=NC12CC3CC(CC(C3)C1)C2,1.8,-0.15
CC1CCN(C(=O)C(C)Sc2nnc3c(n2)[nH]c2ccccc23)CC1 (stereo not given),-3.2,-0.24
CC(C)N(Cc1nnc(-c2ccccc2)o1)C(=O)CN1C(=O)COc2ccccc21,-5.7,/
C=CCn1c2ccc(C)cc2c2nc3ccccc3nc21,5.0,-2.3
CCC1(c2csc(Nc3ccccc3C)n2)CCC(=O)O1 (stereo not given),0.8,-0.46
N#CCSc1sc2c(O)cc(=O)[nH]c2c1C#N,1.8,0.99
CN(C)S(=O)(=O)c1ccc2ncn(O)c2c1,3.0,/
O=C(CCc1ccc(O)cc1)N/N=C/c1coc2ccccc2c1=O,2.2,0.29
C/C(=N\NC(=O)Cc1cccs1)c1ccc(S(=O)(=O)N2CCCC2)cc1,1.4,/
NC(=O)CN1C(=O)Cc2ccccc2C1=O,/,-0.95
O=C(O)c1cc(N=Cc2ccc(N3CCCC3)c(F)c2)ccc1O,1.8,/
O=C(Nc1ccc(OCc2ccccc2)cc1)NC1CCCc2ccccc21 (stereo not given),-0.5,/
Cn1c(=S)[nH]c2cc(S(N)(=O)=O)ccc21,0.6,/
C/C(=N\NC(=O)c1ccc(CN2CCOCC2)cc1)c1ccc2c(c1)OCCO2,0.2,0.24
NC(=O)CSc1nnc(CNc2ccc(Cl)cc2)n1Cc1ccccc1,-0.6,0.19
N#CC(C#N)=C1c2cc(S(=O)(=O)N3CCCCC3)ccc2-c2ccc(S(=O)(=O)N3CCCCC3)cc21,2.1,/
N#Cc1ccccc1NC(=S)Nc1ccccc1,-0.8,/
COCC(C)n1c(C)cc(C(=O)COC(=O)C2COc3ccccc3O2)c1C (stereo not given),2.3,/
Cc1onc(-c2ccccc2)c1C(=O)Nc1ccnn1C1CCCCC1,0.7,/
CN1CCC(OC(=O)COc2ccc(F)cc2)CC1,0.4,-0.29
Cc1occc1-c1nnc(SCC(=O)c2ccc3c(c2)CCN3S(C)(=O)=O)n1C,1.1,/
CCOC(=O)c1ccc(-n2cnc3c2C(=O)c2ccccc2C3=O)cc1,0.0,/
COc1ccc(C2=CC(=C(C#N)C#N)c3cc4c(cc3O2)OCO4)cc1,12,/
CCOc1cc(C(=O)OCC(=O)c2c(C)[nH]c3ccccc23)ccc1OCC(=O)N1CCOCC1,-1.1,/
O=C(NC1CCCCC1)N(Cc1ccccc1)Cc1cc2cc3c(cc2[nH]c1=O)OCCO3,-1.9,-0.21

# Quoted at random: six records from the list, in no set order.
SMILES,Ab BasE inh,KSHV LANA nucl
CCOC(=O)c1ccc(-n2cnc3c2C(=O)c2ccccc2C3=O)cc1,0.0,/
O=C(CCc1ccc(O)cc1)N/N=C/c1coc2ccccc2c1=O,2.2,0.29
Cc1occc1-c1nnc(SCC(=O)c2ccc3c(c2)CCN3S(C)(=O)=O)n1C,1.1,/
N#Cc1ccccc1NC(=S)Nc1ccccc1,-0.8,/
COCC(C)n1c(C)cc(C(=O)COC(=O)C2COc3ccccc3O2)c1C (stereo not given),2.3,/
CN(C)S(=O)(=O)c1ccc2ncn(O)c2c1,3.0,/

# Carrying on:
SMILES,Ab BasE inh,KSHV LANA nucl
COC(=O)COc1ccc(S(=O)(=O)Nc2cc(OC)ccc2OC)cc1,1.2,-1.8
Cc1ccc(-n2nc(C)cc2/N=C/N(C)C)cc1,1.7,/
O=C(O)Cn1ccnc1,2.0,-0.48
COc1ccccc1NC(=O)NC1(C(=O)N2CCc3ccccc32)CCCCC1,-1.1,1.4
NC1=NC(=O)CC(C(=O)Nc2cccc3ccccc23)S1 (stereo not given),1.2,/
C=C(C)c1ccccc1NC(=O)Cn1c(=O)sc2ccccc21,0.7,-0.95

# From PubChem BioAssay
